# Vif TR-FRET: inhibitors of Vif binding to APOBEC3G peptide, primary screen, biochemical, TR-FRET, GST-Vif 1-94, biotin-A3G peptide, dose response retest (AID 1117319); TR-FRET GST-Vif / biotin-A3G peptide binding; higher % means a stronger effect; test concentration not given here; strong numbers were not always called active; inhibition, %; hits with a dose series show IC50 in µM; hit rate 0.57% among 260,000;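 active means above the screen mean plus three standard deviations and confirmed in dose response; inconclusive means results disagree or hit not tested in dose response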;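 further: Vif residues 1-94 fused to GST binding biotinylated APOBEC3G peptide 110-148; 0% = full assay without inhibitor and 100% = GST in place of GST-Vif; retest series ran down from 100 µM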
# Beta apoptosis: beta cell apoptosis inhibition; INS-1E cytokine-induced death, ATP luminescence, 48 h; percent of positive-control rescue, neutral wells zero; protection from apoptosis, % (no concentration beside the values); hit rate 0.8% among 300,000;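 active means all replicates at 75% or more, or half of them and the mean; inconclusive means half reach 75% but not the mean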;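 further: 0% = cytokine-treated negative control wells and 100% = positive control rescue; higher means more ATP so stronger rescue from cytokine killing; wells of about 40 µL received 100 nL stock; the first replicate is given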
# Calb FLC: affects C. albicans growth with fluconazole; C. albicans CaCi-2 (fluconazole-resistant clinical isolate) + fluconazole, Alamar Blue growth, 48 h; growth inhibition, % (no concentration beside the values); hit rate 0.57% among 300,000;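 active means most replicates above 75%; inconclusive means exactly half above 75%; inactive means most below 75%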;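 further: all wells also contain fluconazole at 8 µg/ml as a sub-toxic cotreatment; 0% = median of DMSO wells and 100% = median of geldanamycin control wells; wells of about 8 µL received 7.5 nL stock; the first replicate is given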
# T cruzi inh: blocks replication of Trypanosoma cruzi; T. cruzi beta-gal in NIH3T3, luminescence, 90 h; inhibition, % (no concentration beside the values); hit rate 1.4% among 300,000;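 active means mean inhibition across valid replicates above about 55%, limit read from the data; inconclusive means mean below that limit but half or more replicates reach it; inactive means mean below it, under half of replicates reach it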;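 further: signal also drops with host cell toxicity which is not excluded here; 0% = plate median of DMSO wells and 100% = zero luminescence signal; higher percent means less beta-gal luminescence so fewer parasites; stock transfer was 50 nL into about 50 µL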
# Bfl-1 A1 inh: inhibitors of the anti-apoptotic protein A1, read as caspase activation. MEF A1-2A-BIM cells, Caspase-Glo 3/7 luminescence, 3 h; percent of clofoctol response, vehicle zero. caspase activation, % (no concentration beside the values). hit rate 0.066% among 330,000. AID 2462;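 active means over half of replicate activation scores above 10%, or exactly half above 10 with the replicate mean above 10; inconclusive means replicate mean below 10 yet half the replicates above 10; inactive means over half of replicates below 10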;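 further: wells of about 30 µL received 50 nL stock; many hits fall short of the cut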
# RanGTP-Impb inh: inhibitors of RanGTP-importin-beta interaction, primary screen, biochemical, FRET, CFP-Ran, YFP-importin-beta, homogeneous; inhibition, % (no concentration beside the values); hit rate 1.1% among 300,000; AID 2216; cell-free CFP-Ran/YFP-importin-beta FRET ratio;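 active means most replicates above 15%; inconclusive means exactly half above 15%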;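 further: 0% = DMSO wells and 100% = Ran loaded with GDP instead of GTP; wells of about 40 µL received 100 nL stock; the first replicate is given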
# AF4-AF9 inh: inhibitors of human MLL-AF4/AF9 interaction; hit rate 0.47% among 350,000; AID 651704; P42568; inhibition, % at 10 µM; AlphaScreen, biotin-AF4 peptide binding to FLAG-AF9;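 active means every replicate reaching a set inhibition limit, whatever the replicate mean, cut at about 25% in these data; inconclusive means mean inhibition reaches that limit but some replicates miss it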;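 further: 0% = plate neutral control median and 100% = total signal loss; the record names both 10 and 1 µM as test concentration; the first replicate is given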
# Target sequence (P42568 whole entry, looked up): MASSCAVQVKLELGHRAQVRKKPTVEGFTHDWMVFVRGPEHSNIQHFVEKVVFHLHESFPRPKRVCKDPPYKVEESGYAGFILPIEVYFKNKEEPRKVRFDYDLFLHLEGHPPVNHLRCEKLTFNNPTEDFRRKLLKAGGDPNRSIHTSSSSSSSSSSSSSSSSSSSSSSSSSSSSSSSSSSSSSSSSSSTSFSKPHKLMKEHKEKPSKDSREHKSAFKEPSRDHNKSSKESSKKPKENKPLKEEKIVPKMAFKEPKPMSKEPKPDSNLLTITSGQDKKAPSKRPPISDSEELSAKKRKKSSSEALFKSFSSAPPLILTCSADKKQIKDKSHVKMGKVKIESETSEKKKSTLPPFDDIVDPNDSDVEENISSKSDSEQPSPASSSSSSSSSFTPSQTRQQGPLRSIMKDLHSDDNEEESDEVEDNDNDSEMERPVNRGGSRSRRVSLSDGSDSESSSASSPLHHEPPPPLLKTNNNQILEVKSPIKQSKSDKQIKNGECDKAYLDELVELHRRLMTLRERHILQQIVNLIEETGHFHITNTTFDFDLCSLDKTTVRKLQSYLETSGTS
# Ecoli rRNA inh: inhibitors of bacterial rRNA selective over humanized ribosomes; E. coli WT GFP vs humanized-ribosome RFP mutants, fluorescence, 24 h; hits give low values; DMSO median 0, no signal -100; GFP signal change (wild-type ribosome), % (no concentration beside the values); hit rate 1.6% among 350,000;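 active means significant combined selectivity score with lowered wild-type GFP, culture density cut under 30%, mutant RFP and density less affected; inactive means any of these conditions unmet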; further: one replicate is shown; some compounds called inactive have numbers as strong as hits
# Ecoli rRNA inh OD600: also measured in Ecoli rRNA inh; calls as there; OD600 change, %; measured here: OD600 growth;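 optical density of the mix in the first replicate; 0 = DMSO median and -100 = no signal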
# Ecoli rRNA inh RFP: recorded beside Ecoli rRNA inh, whose call it bears; RFP signal change, %; measured here: RFP humanized mutant strains;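 first replicate; 0 = DMSO median and -100 = no signal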
# * = called active by the depositor; ? = inconclusive; nt = no result given. Some of the compounds tested. The share of hits here may be higher or lower than overall.
SMILES,Vif TR-FRET,Beta apoptosis,Calb FLC,T cruzi inh,Bfl-1 A1 inh,RanGTP-Impb inh,AF4-AF9 inh,Ecoli rRNA inh,Ecoli rRNA inh OD600,Ecoli rRNA inh RFP
O=C(COC(=O)c1ccc(OC(F)F)cc1)Nc1cccc(S(=O)(=O)NC2=NCCC2)c1,1%,1,nt,nt,1.2,nt,0.9,7,-3,2.1
O=C(Nc1ccc(Cl)c(S(=O)(=O)N2CCOCC2)c1)C1CCC1,nt,-2,nt,nt,1.1,nt,-3.7,-1,-1,1.2
CN(Cc1c(F)cccc1Cl)C(=O)c1ccc(NS(=O)(=O)c2ccc3[nH]c(=O)[nH]c3c2)cc1,-4%,-5,1,-17,0.4,0.6,3.7,-22*,-7.4*,7.9*
CCN(CC)C1CCN(C(=O)CCn2nnnc2CN2CCOCC2)C1 (stereo unspecified),nt,-1,1,-9,0.1,-2.0,-1.8,7,11,1.9
CCN1CCN(C(=S)c2ccc(OCC(=O)Nc3ccc(OC)cc3)cc2)CC1,-3%,2,-7,5,-0.6,2.1,nt,nt,nt,nt
O=C(CSc1nc(-c2ccccc2)cs1)Nc1ccccc1[N+](=O)[O-],13%,-3,-6,-3,-0.5,-1.9,3.4,-32,-46,-25
CCN(CC)CCNC(=O)C1c2ccccc2Oc2ccccc21,-5%,-4,5,-13,-1.5,2.3,5.5,8,9,0.3
CCCCn1nc2cc(C(=O)NCc3ccc4c(c3)OCO4)ccc2c1OCC,-4%,-5,-9,11,0.7,-7.7,0.6,6,3,-1.7
O=c1c(O)cccc2cc(O)c(O)c(O)c12,1µM*,8,-8,5,-0.3,?,1.3,-6,1,1.7
COc1cccc(OCC(O)CN2CCN(C(c3ccccc3)c3ccccc3)CC2)c1 (stereo unspecified),nt,nt,-2,8,0.9,-1.8,3.5,-48,-77,-13
O=C(c1cccs1)c1coc2ccc(O)c(CN3CCOCC3)c12,16%,-4,20,10,-1.3,nt,nt,-4,-7,3.3
Cc1ncc([N+](=O)[O-])n1CCOC(=O)NC(NCc1ccccc1Cl)C(Cl)(Cl)Cl (stereo unspecified),13%,-1,-5,1,-0.3,1.7,nt,nt,nt,nt
N#Cc1ccccc1NC(=O)Nc1ccc(Cl)cc1,-6%,5,0,nt,0.2,-2.0,nt,nt,nt,nt
Cc1ccnc2nc(C(=O)OCC(=O)c3ccc(Cl)cc3)nn12,6%,-4,nt,nt,0.0,nt,-1.3,8,15,-0.7
CN(Cc1ccccc1)S(=O)(=O)c1ccc2[nH]c(=O)oc2c1,nt,1,-12,-1,0.5,-2.5,0.5,-15,-24,-3.7
C=CCN(C(=O)c1ccccc1)C1CCS(=O)(=O)C1 (stereo unspecified),nt,1,3,-17,0.5,-1.7,4.7,3,7,0.5
CS(=O)(=O)N(CC(=O)N1CCN(Cc2ccccc2)CC1)c1ccccc1F,9%,-1,-6,-7,1.7,8.6,-2.0,11,10,-0.3
CSc1ccc(CN2C(=O)NC3(CCCCC3)C2=O)cc1,7%,nt,-26,7,1.1,-2.9,-17,18,19,-3.8
COc1ccc(C(=O)Nc2cc3c4c(c2)C(C)C(=O)N4CCC3)cc1OC (stereo unspecified),0%,2,0,2,-0.8,0.2,2.0,2,-1,0.7
CCOC(=O)C1CCN(C(=O)c2cc3c(=O)n4ccccc4nc3n2C)CC1,?,-2,-9,-2,-1.9,?,-0.8,3,12,1.2
COc1ccc([N+](=O)[O-])cc1N(CC(O)CN1CCCCC1)S(=O)(=O)c1ccc(C)cc1 (stereo unspecified),-2%,-6,-5,0,0.3,-3.2,2.4,7,-1,3.4
CC(C)c1nc(SCC(=O)N2CC(=O)Nc3ccccc32)c2ccccc2n1,-16%,-9,2,6,-0.4,-1.1,0.0,-3,7,-0.3
CSCC[C@H](NC(=O)OC(C)(C)C)c1nnc(SCc2ccccc2)o1,21%,nt,15,15,-0.4,-1.9,nt,nt,nt,nt
COc1ccc([C@@H]2CC=C(C(=O)O)[C@H](c3ccccc3)N2S(=O)(=O)c2ccccc2C)cc1,nt,-2,nt,nt,2.1,nt,1.9,-11,-10,-5.0
COc1cc(NC(=O)C2CCN(S(=O)(=O)c3ccc4c(c3)CC(C)N4C(C)=O)CC2)cc(OC)c1OC (stereo unspecified),-5%,-4,6,2,0.3,4.8,0.6,5,2,4.8
CN(Cc1ccccc1)c1nc2c(c(=O)[nH]c(=O)n2C)n1CCCSc1ncccn1,4%,-4,21,3,0.5,-2.3,nt,nt,nt,nt
CCN1CCCC1CNC(=O)C(=O)NC1CC1 (stereo unspecified),9%,-5,4,-12,1.1,-2.7,-2.8,15,14,5.6
CC1CCN(CC(=O)N2CCN(c3ccccc3)CC2)CC1,nt,nt,-2,5,0.3,-1.8,3.5,7,7,0.8
COc1cccc(OCc2nnc3n2N=C(c2ccccc2)C(CC(=O)O)S3)c1 (stereo unspecified),nt,-9,-6,-2,0.2,?,0.4,-5,-12,-2.7
CCN(CC)C(=O)Cn1cc(C(=O)C(=O)NCc2cccnc2)c2ccccc21,nt,-2,1,10,1.0,-0.3,-1.1,2,2,-0.8
COc1ccc(S(=O)(=O)CC(=O)Nc2ccccc2Cl)cc1,?,-7,4,4,-0.1,0.8,-1.5,4,-5,-1.8
COC(=O)c1cc(OC)c(OC)cc1NC(=O)CSc1ccc(C)cc1,-3%,-1,19,4,-0.2,-0.7,nt,nt,nt,nt
Cc1nc(SCc2ccc([N+](=O)[O-])cc2)n[nH]1,nt,-10,-7,-2,-0.4,-0.7,2.4,4,23,1.1
O=C(CN1CCC(NC(=O)Nc2ccc(F)cc2)CC1)Nc1ccccc1[N+](=O)[O-],nt,2,15,18,-0.5,-4.3,9.5,-8,-9,0.1
CC(=C1C(=O)c2ccccc2C1=O)N1CCc2ccccc2C1,11%,-3,20,-22,1.9,6.9,7.7,9,2,-1.5
Cn1cnnc1SCC(=O)c1cccc([N+](=O)[O-])c1,?,11,0,-1,-0.2,-4.4,nt,nt,nt,nt
CC(C)(C)NCC(O)COc1c(F)cc(Br)cc1F (stereo unspecified),0%,-3,0,20,-0.5,1.2,nt,nt,nt,nt
CCOc1ccc(NC(=O)CSc2nc(-c3cccs3)cc(C(F)(F)F)n2)c([N+](=O)[O-])c1,13%,7,-5,3,-2.4,-1.6,-5.7,2,8,-7.6
O=C(/C=C/c1ccc(Cl)cc1)N1CCN(c2ccccn2)CC1,5%,-2,?,24,0.0,?,-21,-1,17,-2.5
COc1ccc(C2=CSC3=NCCN23)cc1[N+](=O)[O-],2%,3,-6,-6,-0.5,5.1,-0.1,5,13,-1.5
O=C(c1cccc(S(=O)(=O)N2CCc3ccccc3C2)c1)N1CCN(c2ccccc2)CC1,27%,-6,12,25,-0.2,-0.8,nt,nt,nt,nt
O=C(O)/C=C/C(=O)c1ccc2c(c1)CCc1ccccc1-2,nt,-44,3,-19,0.5,-0.8,-4.4,-24,-40,-17
CC(=O)c1cnc2c(-c3ccccc3)c(C)nn2c1C,nt,-1,0,-7,1.9,0.7,nt,nt,nt,nt
Cc1ccc(S(=O)(=O)NC(=O)CSc2nc3ccccc3s2)cc1,2%,-4,28,-16,-0.7,4.3,nt,nt,nt,nt
Cc1cc(C)c(OCC(=O)OCCNC(=O)c2cccnc2)c(C)c1,8%,0,-1,-1,-0.8,?,nt,nt,nt,nt
COCCn1nc2cc(C(=O)NCC34CC5CC(CC(C5)C3)C4)ccc2c1OC,-18%,0,-4,-3,0.3,-0.8,-0.2,-1,-1,0.4
COc1ccc(C2NC(=S)NC(C)=C2C(=O)c2ccccc2)cc1OC (stereo unspecified),nt,-10,-6,3,0.1,-0.8,nt,nt,nt,nt
CCN(CC)Cc1c(NC(=O)c2ccccc2)sc(C)c1C,nt,7,24,16,0.3,1.3,2.1,-16,-13,-4.3
Cc1cccc(C(=O)N[C@H](C(=O)OCC(=O)NC2CCS(=O)(=O)C2)C(C)C)c1 (stereo partly specified),13%,-2,-2,3,?,-2.5,nt,nt,nt,nt
Cc1ccc(SCC(=O)Nc2ccccc2N2CCOCC2)cc1,nt,-12,1,-3,1.0,5.1,-3.2,-28*,-22*,0.0*
COc1ccc(-c2nc(CC(=O)O)cs2)cc1,0%,6,4,2,-0.2,-2.2,nt,nt,nt,nt
Cc1ccc(S(=O)(=O)CCc2nnc(NC(=O)COc3cccc(C)c3)s2)cc1,0%,2,23,-5,-0.1,2.4,-43,6,-2,-0.1
O=C(Nc1cccnc1)c1ccc2c(c1)C(=O)N(CC1CCCO1)C2=O (stereo unspecified),-7%,-4,7,-14,-0.5,3.2,-4.1,-1,1,1.3
O=C(CSc1nnc(-c2ccncc2)s1)Nc1ccc(Cl)c(C(=O)O)c1,nt,-3,-2,2,-0.8,2.1,2.2,3,11,-4.5
O=c1nc(SCc2c(F)cccc2Cl)nc(-c2ccccc2)[nH]1,10%,-1,-2,-7,0.1,2.5,-0.2,nt,nt,nt
Cc1cc(C)n(CCCNC(=O)COc2ccc([N+](=O)[O-])cc2)n1,nt,-5,nt,nt,0.5,nt,-1.8,5,15,1.5
CCOC(=O)c1ccc(CNC(=O)c2cc(C(C)(C)C)oc2C)o1,-1%,1,0,5,0.5,-1.3,nt,nt,nt,nt
COCC(=O)Nc1nnc(COc2ccccc2)s1,70%,-4,-2,-4,0.5,?,nt,nt,nt,nt
CCOC(=O)c1sc(NS(=O)(=O)c2ccccc2Cl)nc1C,16%,-2,-2,7,0.0,-5.0,nt,nt,nt,nt
CCNC(=O)CSc1nnc(CN2CCCCCC2=O)n1-c1ccccn1,1%,-5,-9,10,-0.4,-3.8,-0.6,12,-3,-2.1

# More results:
SMILES,Vif TR-FRET,Beta apoptosis,Calb FLC,T cruzi inh,Bfl-1 A1 inh,RanGTP-Impb inh,AF4-AF9 inh,Ecoli rRNA inh,Ecoli rRNA inh OD600,Ecoli rRNA inh RFP
Cc1ccn(CCC(=O)O)n1,-2%,-7,-2,-17,-1.0,-1.0,2.5,13,8,1.9
O=C(CN1C2=NCCN2c2ccccc21)c1ccco1,17%,-1,-33,-9,0.1,0.5,nt,nt,nt,nt
CCN(CC)c1ccc(NC(=O)Nc2ccc(C(C)=O)cc2)cc1,?,17,-26,7,-0.4,4.5,nt,nt,nt,nt
CC(C)(C)Cc1nnc(NC(=O)Cc2ccc([N+](=O)[O-])cc2)s1,-6%,-13,2,-3,0.4,2.2,nt,nt,nt,nt
O=C(O)C1CCN(C(=O)c2csc(-c3ccc4c(c3)CCO4)n2)CC1,-10%,3,1,-10,0.2,-2.8,nt,-2,5,1.9
Cc1cccc(N2CCN(C(=O)CCCn3c(=S)[nH]c4cc5c(cc4c3=O)OCO5)CC2)c1C,-4%,7,-4,57*,nt,-1.3,nt,nt,nt,nt
CC(=O)c1ccc(N2CCN(C(=O)c3cccs3)CC2)c(F)c1,nt,-6,3,-6,0.3,-4.4,-0.9,-7,-16,-0.5
Cc1ccnc(NC(=O)c2cc3ccccc3o2)c1,-8%,12,-15,2,-9.4,5.6,-3.4,-6,16,-3.6
